2A StopGo: High Throughput Screening for Foot and Mouth Disease Virus Antivirals. human cells with a luciferase reporter of 2A StopGo recoding; control for the full effect not named in the record. Potency, µM (top dose mostly 57.9 µM), without a hit: top-dose signal change, negative = less light. 1.2% of 410,000 active; active = well fitted falling curve with a large enough effect; inconclusive = small, poorly fitted or top-dose-only effect; inactive = no such curve, though single readings can be large or run the other way; tested in HEK293T cells; note: % is set by controls: 0 for no effect and ±100 for the full control effect; nearly all actives have a fitted effect of over 45% in size; luciferase light after 4 h
Cruzain inh Det: qHTS Assay for Promiscuous and Specific Inhibitors of Cruzain (with detergent) | Cruzipain (Trypanosoma cruzi), P25779 | purified cruzain, Z-FR-AMC fluorescence, 0.01% Triton | Potency, µM, inactives show max response, negative = inhibition, hits mostly inhibitors | 0.43% of 200,000 active | AID 1478, 2009;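 note: plate controls were neutral wells for no effect and buffer without enzyme for full effect; nearly all actives have a fitted effect of over 40% in size; top concentration of the series not given in the record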
Target sequence (P25779 123-467 limits assumed): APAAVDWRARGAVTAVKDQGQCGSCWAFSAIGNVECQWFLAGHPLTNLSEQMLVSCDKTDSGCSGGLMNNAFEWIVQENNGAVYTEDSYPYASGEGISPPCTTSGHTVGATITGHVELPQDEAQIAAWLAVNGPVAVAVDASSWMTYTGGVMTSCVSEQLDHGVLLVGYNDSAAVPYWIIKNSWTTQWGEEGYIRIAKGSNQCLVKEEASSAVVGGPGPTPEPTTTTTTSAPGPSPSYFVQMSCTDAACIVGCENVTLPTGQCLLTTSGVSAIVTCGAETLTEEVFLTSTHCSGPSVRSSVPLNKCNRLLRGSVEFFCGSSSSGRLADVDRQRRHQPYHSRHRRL
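Enzyme 1.5 nM, Z-FR-AMC 2 uM, NaOAc 100 mM pH 5.5, DTT 5 mM, Triton X-100 0.01%; 15 min RT compound preincubation; kinetic ex360/em450, 60 s delta.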
RE007 growth inh: qHTS Assay for Inhibitors of the HIV-1 protein Vpr; S. pombe RE007 Vpr strain, BacTiter-Glo ATP luminescence, 24 h; control for the full effect not named in the record; Potency, µM (doses to about 92.2 µM), without a hit: top-dose activity change, negative = less growth; 0.21% of 360,000 active; active = well fitted falling curve with a large enough effect; inconclusive = small, poorly fitted or top-dose-only effect; inactive = no such curve, though single readings can be large or run the other way;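 note: % is set by controls: 0 for no effect and ±100 for the full control effect; nearly all actives have a fitted effect of over 50% in size; the assay follows cell death caused by Vpr and the record does not say whether a fall means rescue or toxicity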
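Fission yeast RE007 carrying one integrated HIV-1 vpr copy, seeded at OD 0.01 in PMG+AL medium with 23 nL pinned compound. Grown 24 h at 30 degrees; viability read by BacTiter-Glo luminescence after 5 min.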
NS1 function inh: qHTS Assay for Inhibitors of Influenza NS1 Protein Function; S. cerevisiae slowed by influenza A NS1, growth recovery by OD600; Potency, µM (top dose mostly 46.1 µM), for inactives: at the highest dose activity, positive = more growth; 0.4% of 270,000 active; active means well fitted rising curve with a large enough effect; inconclusive means small, poorly fitted or top-dose-only effect; inactive means no such curve, though single readings can be large or run the other way; note: nearly all actives have a fitted effect of over 50% in size
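A cell-based growth assay was used: compounds that relieve NS1-induced slow growth of budding yeast raise OD600. Assay medium was yeast nitrogen base with ammonium sulphate and -URA supplement, pH 6.0, with 2% galactose.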
Cruzain noTriton: qHTS Assay for Promiscuous and Specific Inhibitors of Cruzain (without detergent); Cruzipain (Trypanosoma cruzi), P25779; purified cruzain, Z-FR-AMC fluorescence, no detergent; Potency, µM, for the others: max response, negative = inhibition, hits mostly inhibitors; 2.3% of 200,000 active;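 note: plate controls were enzyme without inhibitor for no effect and buffer without enzyme for full effect; nearly all actives have a fitted effect of over 40% in size; top concentration of the series not given in the record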
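Detergent-free condition (0.00005% Triton X-100) in acetate buffer pH 5.5 with DTT. 1.5 nM enzyme and compound were pre-mixed 15 min, then 2 uM Z-FR-AMC substrate added; reaction progress from fluorescence change between first and third reads (60 s).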
Lassa entry inh: qHTS for Inhibitors of binding or entry into cells for Lassa Virus; 1.2% of 300,000 active; Lassa virus pseudotype entry inhibition, cell reporter; control for the full effect not named in the record; Potency, µM (doses to about 37.9 µM), for inactives: top-dose activity change, negative = inhibition, most hits filed as inhibitors; active means well fitted inhibition curve with a large enough effect; inconclusive means small, poorly fitted or top-dose-only effect, or effect the other way; inactive means flat fitted curve, though single readings scatter; tested in HEK293 cells; note: % is set by controls: 0 for no effect and ±100 for the full control effect; nearly all actives have a fitted effect of over 50% in size; luciferase read-out
MARV entry inh: qHTS for inhibitors of binding or entry into cells for Marburg Virus | AID 540276, 2011 | Marburg virus pseudotyped entry inhibition, cell reporter; control for the full effect not named in the record; about a third of the inactives were read at about 46 µM | Potency, µM (series often up to 37.8 µM), for the others: at the top dose activity change, negative = inhibition, usual class: inhibitors | 1.8% of 300,000 active; active = well fitted inhibition curve with a large enough effect; inconclusive = small, poorly fitted or top-dose-only effect, or effect the other way; inactive = flat fitted curve, though single readings scatter; tested in HEK293 cells; about a fifth of its hits are not listed in these tables; note: % is set by controls: 0 for no effect and ±100 for the full control effect; luciferase read-out
SARS PLpro yeast: qHTS of Yeast-based Assay for SARS-CoV PLP | S. cerevisiae expressing SARS-CoV PLpro, growth rescue; control for the full effect not named in the record | Potency, µM (doses to about 32.9 µM), for the others: at the top dose activity, positive = growth rescue | 0.19% of 330,000 active; active means well fitted rising curve with a large enough effect; inconclusive means small, poorly fitted or top-dose-only effect; inactive means no such curve, though single readings can be large or run the other way; note: 0% is about no effect; nearly all actives have a fitted effect of over 55% in size; growth read by luminescence after 48 h
An asterisk follows results filed as active; ? = inconclusive; . = not tested or not shown; [ ] = dose if it differs, or a comment. Unless noted, calls come from the whole dose curve; as a rule, active = well fitted curve in the direction sought with a large enough effect; inconclusive = small, poorly fitted or top-dose-only effect, or another doubt; inactive = no such curve, though single readings can be large; an effect the other way counts as inactive or inconclusive. Potency is the fitted concentration of half-maximal effect.

cpd	SMILES	NS1 function inh	2A StopGo	Cruzain inh Det	RE007 growth inh	SARS PLpro yeast	MARV entry inh	Lassa entry inh	Cruzain noTriton
1	CCCCCOc1ccc(Cn2ccnc2)cc1[N+](=O)[O-]	-25%	-10%	-3.0%	-1%	-17%	-14%	6%	0%
2	CCC(C)NC(=O)c1cn(C)c(=O)c2cc(OC)c(OC)cc12 (stereo not given)	-10%	18%	-0.3%	11%	1%	0%	12%	1%
3	Cc1ccn2c(=O)nc(SCC(=O)Nc3cccc4ccccc34)nc2c1	.	16%	.	6%	-2%	5%[46.1 µM]	-7%	.
4	O=C(NN1C(=O)C2C(C1=O)C1C=CC2C12CC2)c1ccccc1Cl (stereo not given)	-2%	-9%	.	12%	0%	8%[46.1 µM]	11%[46.1 µM]	.
5	O=C(NNC(=O)C1CC1)c1cccc([N+](=O)[O-])c1	0%	-6%	.	-3%	-3%	12%[46.1 µM]	-13%[46.1 µM]	.
6	NC(=O)c1nsc(C(=O)N(Cc2cccnc2)C(C(=O)NCc2ccc(F)cc2)c2ccc(O)cc2)c1N (stereo not given)	-5%	-1%	.	1%	2%	7%[46.1 µM]	.	.
7	COC(=O)c1ccc(NC(=O)C(=O)c2cn(CC(=O)N3CCOCC3)c3ccccc23)cc1	3%	-18%	.	-9%	-3%	.	.	.
8	O=C(COc1ccc(Cl)cc1)Nc1cc2c3c(c1)CC(=O)N3CCC2	.	-7%	.	10%	-7%	8%	-9%	.
9	COC(=O)c1nn(-c2ccccc2)c(Cl)c1/C=N/OCc1ccc(C)cc1	9%	0%	-2.1%	-15%	2%	-20%	?	24%
10	Cc1cc([N+](=O)[O-])ccc1NC(=O)c1cc2ccccc2o1	3%	43%[activator]	.	2%	7%	-1%	?	.
11	CC1(C)Cc2ccccc2-c2nnc(SCc3ccc(C#N)cc3)n21	-31%	?	-2.4%	0%	0%	-23%	?	-4%
12	CC(C)c1ccc(NC(=O)CSC2=Nc3ccccc3C3=NC(CCC(=O)NCc4ccco4)C(=O)N23)cc1 (stereo not given)	.	-11%	-1.0%	.	.	.	3%[46.1 µM]	?
13	Nc1ccc(Cl)cc1C(=O)c1ccccc1Cl	-41%	4%	-6.8%	-3%	-26%	6%	-2%	-13%
14	COc1cc(C(=O)OCCCN2CCOCC2)ccc1O	4%	27%	.	2%	1%	24%[46.1 µM]	-12%	.
15	COc1ccc(C(=O)CSc2nnc(CN3CCCCC3)n2-c2ccc(F)cc2)cc1OC	0%	-23%	-5.0%	-9%	-12%	2%	-3%	-5%
16	Cc1ccc(CN2C(=O)CCC2C(=O)NCc2cccnc2)cc1 (stereo not given)	13%	32%[activator]	6.4%	11%	5%	1%	-3%	-10%
17	CCN(CCCn1c(=S)[nH]c2ccc(N3CCOCC3)cc2c1=O)c1ccccc1	.	?	.	-3%	-3%	?	-16%	.
18	C=CCCC(=O)NC1CCCc2c1cnn2-c1ccccc1F (stereo not given)	-2%	-20%	.	2%	3%	.	.	.
19	Cc1nnc(SCC(=O)NC2CCCc3c2cnn3-c2ccccc2F)o1 (stereo not given)	15%	-18%	.	1%	-1%	.	.	.
20	COc1ccc2cc(CN(CC3COCCO3)S(=O)(=O)c3ccccc3)c(=O)[nH]c2c1 (stereo not given)	-9%	11%	10%	-8%	-11%	?	-21%	8%
21	CN(C(=O)C12CC3CC(CC(C3)C1)C2)C1CCS(=O)(=O)C1 (stereo not given)	16%	-6%	1.7%	5%	-4%	17%	-15%	9%
22	CC(C)CN(CC(C)C)C(=O)CN1c2cccc3cccc(c23)S1(=O)=O	-3%	-10%	.	-5%	0%	-5%[46.1 µM]	?	.
23	CCC1=C/C(=C\c2ccc3c(c2)OCO3)C(=O)S1	-55%	.	-17%	.	-15%	2%	.	?
24	O=S(=O)(CCCc1ccccc1)c1ncn[nH]1	?	-4%	4.5%	-1%	-6%	?	4%	7%

Structures listed so far with four or more nitrogen atoms (seven):
cpd	SMILES	NS1 function inh	2A StopGo	Cruzain inh Det	RE007 growth inh	SARS PLpro yeast	MARV entry inh	Lassa entry inh	Cruzain noTriton
3	Cc1ccn2c(=O)nc(SCC(=O)Nc3cccc4ccccc34)nc2c1	.	16%	.	6%	-2%	5%[46.1 µM]	-7%	.
6	NC(=O)c1nsc(C(=O)N(Cc2cccnc2)C(C(=O)NCc2ccc(F)cc2)c2ccc(O)cc2)c1N (stereo not given)	-5%	-1%	.	1%	2%	7%[46.1 µM]	.	.
11	CC1(C)Cc2ccccc2-c2nnc(SCc3ccc(C#N)cc3)n21	-31%	?	-2.4%	0%	0%	-23%	?	-4%
12	CC(C)c1ccc(NC(=O)CSC2=Nc3ccccc3C3=NC(CCC(=O)NCc4ccco4)C(=O)N23)cc1 (stereo not given)	.	-11%	-1.0%	.	.	.	3%[46.1 µM]	?
15	COc1ccc(C(=O)CSc2nnc(CN3CCCCC3)n2-c2ccc(F)cc2)cc1OC	0%	-23%	-5.0%	-9%	-12%	2%	-3%	-5%
17	CCN(CCCn1c(=S)[nH]c2ccc(N3CCOCC3)cc2c1=O)c1ccccc1	.	?	.	-3%	-3%	?	-16%	.
19	Cc1nnc(SCC(=O)NC2CCCc3c2cnn3-c2ccccc2F)o1 (stereo not given)	15%	-18%	.	1%	-1%	.	.	.

(cont.)
cpd	SMILES	NS1 function inh	2A StopGo	Cruzain inh Det	RE007 growth inh	SARS PLpro yeast	MARV entry inh	Lassa entry inh	Cruzain noTriton
25	Cc1oc(-c2cccc(Br)c2)[n+]([O-])c1C	.	30%	.	-5%	1%	?	?	.
26	COc1ccc(OC)c(S(=O)(=O)N2CCCC(C(=O)NCc3cccnc3)C2)c1 (stereo not given)	-6%	-3%	.	6%	1%	-14%[46.1 µM]	.	.
27	COc1ccc(N(C)S(=O)(=O)c2cccc(C(=O)OCC(=O)NCc3ccccc3OC)c2)cc1	5%	-29%	.	-16%	2%	-14%[46.1 µM]	?	.
28	CCOC(=O)N1CCN(CC(=O)Nc2cc(OC)c(OC)cc2C#N)CC1	.	23%	.	-7%	7%	-18%[46.1 µM]	-20%	.
29	CC(=O)N1CCOc2ccc(S(=O)(=O)NCCc3cccc(C)c3)cc21	-14%	41%[activator]	.	-2%	-4%	.	.	.
30	CC(C)(C)c1ccc(C(=O)N/N=C2\C3CN4CCN(C3)CC2(c2ccccc2)C4)cc1	6%	15%	2.7%	2%	-17%	?	-11%	10%
31	CCSc1nc(O)c(C(c2cccc(OC)c2)c2c(O)nc(SCC)[nH]c2=O)c(=O)[nH]1	16%	3%	.	-2%	9%	4%	?	.
32	COc1ccc(C(=O)Nc2ccc3c(c2)OCO3)cc1OC	-11%	.	-1.6%	-13%	-5%	11%	-16%	-7%
33	COCCNC(=O)CCCCCNS(=O)(=O)c1ccc(C)cc1	0%	8%	5.0%	-15%	-3%	-11%	1%	-3%
34	CCNS(=O)(=O)c1ccc(CCC(=O)NCc2ccccn2)cc1	5%	-18%	.	-3%	5%	.	.	.
35	C/C(=N\OCc1cccc(C(=O)O)c1)c1ccc(Cl)cc1	-56%	10µM*	.	?	-4%	?	?	.
36	O=C(CSc1nc2ccccc2o1)Nc1cc(C(F)(F)F)ccc1N1CCOCC1	6%	?	-5.5%	10%	-13%	?	?	-1%
37	Cc1nn(Cc2ccc([N+](=O)[O-])cc2)c(=O)n1-c1ccccc1	9%	-9%	9.7%	7%	-4%	6%	7%	10%
38	CC(N=C(NS(=O)(=O)c1ccc(Cl)cc1)c1ccccc1)C(=O)O (stereo not given)	9%	8%	3.0%	12%	9%	-2%[46.1 µM]	0%	-6%
39	CC(C)=CC(=O)OCC(=O)Nc1nc(C)c(Cl)cc1Cl	1%	3%	-0.7%	5%	-4%	3%	5%	-4%
40	CCOC(=O)c1c(C)[nH]c(C(=O)OCc2ccc(F)cc2)c1C	1%	20%	.	-10%	16%	?	?	.
41	Cc1ccc(NC(=O)c2cc(S(=O)(=O)N3CCOCC3)c(Br)s2)cc1	5%	?	-6.8%	7%	-31%	-25%	10µM*	8%
42	COc1ccccc1N(CC(=O)Nc1ccc(C)c(Cl)c1)S(=O)(=O)c1ccc(C)cc1	.	-21%	-5.7%	.	.	-26%[46.1 µM]	?	?
43	COc1ccc(S(=O)(=O)N(CCc2ccccc2)CC(=O)O)cc1	-3%	26%	0.7%	7%	7%	1%	-11%	-1%
44	CCOC(=O)c1ccc(NCc2ccc(N(C)C)cc2)cc1	-7%	-4%	-6.7%	-13%	-3%	-15%	-8%	-6%
45	COc1ccc(NC(=S)N2CCN(C(=O)c3ccco3)CC2)cc1	-2%	-3%	.	4%	0%	-1%[46.1 µM]	21%[46.1 µM]	.
46	CC1CCN(C(=O)CSc2nc3ccccc3[nH]2)CC1	-5%	56%[activator]	10%	-16%	1%	19%	0%	1%
47	O=C(NCc1ccco1)c1ccc(Cl)c(S(=O)(=O)N2CCc3ccccc32)c1	13%	?	-5.5%	2%	?	?	?	-1%
48	O=C(OCCOc1ccccc1F)c1cc(S(=O)(=O)N2CCOCC2)ccc1F	.	0%	.	-7%	.	-3%[46.1 µM]	3%	.
